SARS PLP yeast: inhibitors of SARS-CoV papain-like protease in yeast; S. cerevisiae expressing SARS-CoV PLpro, growth rescue; control for the full effect not named in the record; Potency, µM (series often up to 32.9 µM), without a hit: at the highest dose activity, positive = growth rescue; 0.19% of 330,000 active; AID 485353; note: 0% is about no effect; nearly all actives have a fitted effect of over 55% in size; growth read by luminescence after 48 h
MARV entry inh: inhibitors of Marburg virus binding or cell entry; Marburg virus pseudotyped entry inhibition, cell reporter; control for the full effect not named in the record; about a third of the inactives were read at about 46 µM; Potency, µM (highest dose often 37.8 µM), for inactives: at the highest dose activity change, negative = inhibition, usual class: inhibitors; 1.8% of 300,000 active; active = well fitted inhibition curve with a large enough effect; inconclusive = small, poorly fitted or top-dose-only effect, or effect the other way; inactive = flat fitted curve, though single readings scatter; tested in HEK293 cells; about a fifth of its hits are not listed in these tables; note: % is set by controls: 0 for no effect and ±100 for the full control effect; luciferase read-out
NS1 function inh: inhibitors of influenza NS1 protein function | 0.4% of 270,000 active | Potency, µM (doses to about 46.1 µM), for inactives: top-dose activity, positive = more growth | S. cerevisiae slowed by influenza A NS1, growth recovery by OD600; note: actives are rising curves; nearly all actives have a fitted effect of over 50% in size
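A cell-based growth assay was used: compounds that relieve NS1-induced slow growth of budding yeast raise OD600. Assay medium was yeast nitrogen base with ammonium sulphate and -URA supplement, pH 6.0, with 2% galactose.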
Lassa entry inh: inhibitors of Lassa virus binding or cell entry | Lassa virus pseudotype entry inhibition, cell reporter; control for the full effect not named in the record | Potency, µM (highest dose often 37.9 µM), inactives show at the highest dose activity change, negative = inhibition, actives largely listed as inhibitors | 1.2% of 300,000 active | AID 540256; active means well fitted inhibition curve with a large enough effect; inconclusive means small, poorly fitted or top-dose-only effect, or effect the other way; inactive means flat fitted curve, though single readings scatter; tested in HEK293 cells; note: % is set by controls: 0 for no effect and ±100 for the full control effect; nearly all actives have a fitted effect of over 50% in size; luciferase read-out
RE007 growth inh: less growth of the S. pombe RE007 Vpr strain; S. pombe RE007 Vpr strain, BacTiter-Glo ATP luminescence, 24 h; control for the full effect not named in the record; 0.21% of 360,000 active; Potency, µM (top dose mostly 92.2 µM), without a hit: top-dose activity change, negative = less growth; AID 651644; active = well fitted falling curve with a large enough effect; inconclusive = small, poorly fitted or top-dose-only effect; inactive = no such curve, though single readings can be large or run the other way;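 note: % is set by controls: 0 for no effect and ±100 for the full control effect; nearly all actives have a fitted effect of over 50% in size; the assay follows cell death caused by Vpr and the record does not say whether a fall means rescue or toxicity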
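Fission yeast strain RE007, carrying one chromosomally integrated HIV-1 vpr copy, was seeded at OD 0.01 in PMG+AL medium with 23 nL pinned compound. After 24 h at 30 °C and 99% humidity, viability was read by BacTiter-Glo luminescence.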
StopGo reporter: FMDV 2A StopGo reporter, luciferase signal. human cells with a luciferase reporter of 2A StopGo recoding; control for the full effect not named in the record. Potency, µM (series often up to 57.9 µM), inactives show top-dose signal change, negative = less light. 1.2% of 410,000 active. AID 1159524; active = well fitted falling curve with a large enough effect; inconclusive = small, poorly fitted or top-dose-only effect; inactive = no such curve, though single readings can be large or run the other way; tested in HEK293T cells; note: % is set by controls: 0 for no effect and ±100 for the full control effect; nearly all actives have a fitted effect of over 45% in size; luciferase light after 4 h
Cruzain noTriton: blocks cruzain activity in detergent-free assay; P25779; purified cruzain, Z-FR-AMC fluorescence, no detergent; Potency, µM, for inactives: max response, negative = inhibition, actives largely listed as inhibitors; 2.3% of 200,000 active; AID 1476; active = well fitted curve in the direction sought with a large enough effect; inconclusive = small, poorly fitted or top-dose-only effect, or another doubt; inactive = no such curve, though single readings can be large; an effect the other way counts as inactive or inconclusive;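 note: plate controls were enzyme without inhibitor for no effect and buffer without enzyme for full effect; nearly all actives have a fitted effect of over 40% in size; top concentration of the series not given in the record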
Target sequence (P25779 123-467 limits assumed): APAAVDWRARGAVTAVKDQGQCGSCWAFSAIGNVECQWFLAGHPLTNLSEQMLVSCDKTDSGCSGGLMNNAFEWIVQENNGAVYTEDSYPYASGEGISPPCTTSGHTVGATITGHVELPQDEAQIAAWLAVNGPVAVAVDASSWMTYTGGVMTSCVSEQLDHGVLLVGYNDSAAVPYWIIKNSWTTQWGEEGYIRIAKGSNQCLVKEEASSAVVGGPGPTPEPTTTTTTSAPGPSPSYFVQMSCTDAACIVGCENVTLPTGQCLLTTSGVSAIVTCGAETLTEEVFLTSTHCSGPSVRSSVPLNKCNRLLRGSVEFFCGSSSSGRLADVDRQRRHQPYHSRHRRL
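Purified cruzain at 1.5 nM, pre-incubated 15 min with compound at room temperature in 100 mM sodium acetate pH 5.5, 5 mM DTT, 0.00005% Triton X-100. Reaction started with 2 uM Z-FR-AMC; AMC fluorescence increase over 60 s gives rate.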
Cruzain Triton: cruzain (T. cruzi) inhibition with detergent | Potency, µM, for inactives: max response, negative = inhibition, usual class: inhibitors | P25779 | 0.43% of 200,000 active | AID 1478 | purified cruzain, Z-FR-AMC fluorescence, 0.01% Triton; active = well fitted curve in the direction sought with a large enough effect; inconclusive = small, poorly fitted or top-dose-only effect, or another doubt; inactive = no such curve, though single readings can be large; an effect the other way counts as inactive or inconclusive;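 note: plate controls were neutral wells for no effect and buffer without enzyme for full effect; nearly all actives have a fitted effect of over 40% in size; top concentration of the series not given in the record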
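Purified cruzain (1.5 nM final) was preincubated with compounds for 15 min at room temperature in 100 mM sodium acetate pH 5.5, 5 mM DTT, 0.01% Triton X-100. Reaction started with 2 uM Z-FR-AMC; AMC fluorescence change over 60 s gave activity.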
An asterisk follows results filed as active; ? = inconclusive; . = no result given; & = joins results of further samples; [ ] = dose if it differs, or a comment. Unless noted, calls come from the whole dose curve; as a rule, active means well fitted rising curve with a large enough effect; inconclusive means small, poorly fitted or top-dose-only effect; inactive means no such curve, though single readings can be large or run the other way. Potency is the fitted concentration of half-maximal effect.

SMILES	SARS PLP yeast	MARV entry inh	NS1 function inh	Lassa entry inh	RE007 growth inh	StopGo reporter	Cruzain noTriton	Cruzain Triton
Clc1ccc(OCCCCCN2CCOCC2)cc1	-1%	-2%[46.1 µM]	-27%	?	?	-5%	.	.
CCC(NC(=O)Cc1cccs1)c1ccccc1 (configuration not stated)	-8%	?	0%	-9%[46.1 µM]	8%	10%	.	.
CCOC(=O)c1c(N)sc(C(O)(C(F)(F)F)C(F)(F)F)c1-c1ccccc1	-21%	-7%	-119%	-4%	?	-15%	-4%	-9.7%
Cc1cccc(NC(=S)N(CCN(C)C)Cc2cccs2)c1	2%	-11%[46.1 µM]	.	0%	10%	27%	.	.
Clc1cccc(Cl)c1CSc1nnc(CN2CCOCC2)n1-c1ccccc1	-1%	-17%	-12%	-27%	-14%	3%	7%	2.2%
Cc1cnc(NC(=O)c2cc(S(=O)(=O)N(C)C)ccc2N2CCCC2)s1	-11%	?	.	-14%[46.1 µM]	9%	-13%	.	.
Cc1cc(CCNC=O)c(C)c2c1sc1ccccc12	.	4%	.	7%[46.1 µM]	7%	16%	.	.
Cc1nc(C)c(CCNC(=O)c2ccc(C(F)(F)F)cc2)s1	-6%	16%	-5%	7%	14%	-13%	1%	-13%
O=c1[nH]c2cc(Br)ccc2n2cccc12	.	1%[46.1 µM]	.	?	.	-21%	11%	-3.4%
COc1cccc(OC)c1OCc1cc(C2C3CCCC=C3C(C#N)=C(N)C2(C#N)C#N)c(C)cc1C (configuration not stated)	2%	?	17%	20µM*	8%	?	22%	-2.4%
O=[N+]([O-])c1cccc2c(Cl)ccnc12	1%	?	5%	.	?	-15%	.	.
CCCC(=O)NCc1nc2ccccc2n1C	1%	?	-10%	0%	6%	13%	5%	1.0%
Cn1c(=O)c2c(nc(NCc3cccnc3)n2Cc2cccc(C(F)(F)F)c2)n(C)c1=O	-2%	13%&13%	-11%	-19%	-20%	?	5%	-1.8%
COc1cc(C2C3C(=O)N(c4ccccc4)C(=O)C3ON2c2ccccc2)ccc1O (configuration not stated)	0%	?	22%	-1%	-10%	3%	6%	-3.0%
COc1ccc(-c2sc3ccccc3c2C#CCCO)cc1	-30%	.	-92%	.	-8%	-12%	.	.
O=C(CSc1nccn1-c1cccc(Cl)c1)Nc1cccc2ccccc12	.	.	.	-19%[46.1 µM]	.	-14%	5%	-6.1%
CC(C)n1cc(C(=O)N(CC(=O)NC2CCCC2)Cc2ccccc2)cn1	5%	3%	-2%	-1%	8%	8%	-7%	3.8%
O=C(COc1ccc(Cl)cc1)Nc1ccc(Cc2ccncc2)cc1	-30%	9%	-36%	0%	.	?	-18%	-8.2%
Cc1cc(C)c(C2C3=C(Nc4c2c(C)nn4-c2ccccn2)c2ccccc2C3=O)c(C)c1 (configuration not stated)	-9%	-4%	-6%	-1%	1%	-21%	13µM*	-7.1%
COCCNC(=O)CN1C(=O)/C(=C/c2ccccc2)Oc2ccc(C(C)(C)C)cc21	-1%	.	12%	.	2%	-13%	.	.
CCN(C(=O)CSc1nnnn1-c1cc(C)ccc1OC)C1CCS(=O)(=O)C1 (configuration not stated)	2%	13%&13%	-7%	4%	18%	7%	15%	4.4%
CC12CCC(C(=O)NCc3ccccc3Cl)(OC1=O)C2(C)C (configuration not stated)	0%	.	-2%	.	-14%	-4%	.	.
CCOC(=O)c1ccc(N2C(=O)CC(N(Cc3ccc4c(c3)OCO4)C(=O)Nc3ccccc3)C2=O)cc1 (configuration not stated)	24%	11%	-3%	2%	5%	-12%	6%	4.7%
Cc1ccccc1OCC(=O)Nc1ccc2c(c1)COC2=O	-11%	24%	-7%	27%	-4%	17%	13%	2.8%
CCC1(C)Cc2c(sc3nc(SC)[nH]c(=S)c23)CO1 (configuration not stated)	5%	-3%[46.1 µM]	7%	?	-6%	19%	.	.
O=C1C2C3C=CC([C@@H]2C(=O)N1Cc1cccnc1)C31CC1 (some centres not stated)	-3%	11%	-1%	5%	-5%	-8%	-3%	3.5%
Cc1nnc(SC(C(=O)Nc2ccc(Cl)c([N+](=O)[O-])c2)c2ccccc2)[nH]c1=O (configuration not stated)	1%	4%	-6%	2%	3%	69%[activator]	.	.
COc1ccc(O)c(C(=O)c2cnc3onc(C)c3c2)c1	-1%	1%	-9%	18%	-6%	57%[activator]	-23%	-5.2%
CN(C)/C=C1\SC(=S)N(c2ccc(F)cc2)C1=O	-2%	6%	-3%	.	8%	47%[activator]	.	.
CCOC(=O)N1CCN(S(=O)(=O)c2ccc([N+](=O)[O-])cc2)CC1	4%	-2%[46.1 µM]	.	6%	-6%	-13%	.	.
CC(C)[C@H](NC(=O)c1ccccc1F)C(=O)NC1CCCCCCC1	4%	17%	.	-16%	7%	-11%	.	.
CC(=O)N1CCN(S(=O)(=O)c2cccc(C(=O)NCCC3=CCCCC3)c2)CC1	5%	20%	.	?	-1%	-3%	.	.
CC1=C(C#N)CCC(=O)N1Cc1c(F)cccc1Cl	-5%	8%[46.1 µM]	.	-17%	-7%	-4%	.	.
O=C(Nc1cccc(Cl)c1)OCCOc1ccccc1	-3%	.	-22%	.	-3%	48%[activator]	.	.
Cc1ccc(C)c(N2CCN(C(=O)C(C)n3nc(C)c4sc5ccccc5c4c3=O)CC2)c1 (configuration not stated)	.	1%[46.1 µM]	.	0%[46.1 µM]	.	0%	3%	-24%
CC(C)c1cccc(OCCn2c(-c3ccc(Cl)cc3)nc3ccccc3c2=O)c1	.	7%[46.1 µM]	.	10%[46.1 µM]	.	-12%	-10%	-1.4%
CC(CCc1ccco1)NC(=O)c1cc2c(-c3ccccc3F)nn(C)c2s1 (configuration not stated)	-9%	.	-3%	.	10%	?	?	-7.3%
N#Cc1c(-c2ccccc2)c(-c2ccccc2)n(Cc2ccco2)c1NC(=O)c1cccs1	2%	?	15%	?	1%	5%	?	0.0%
N#Cc1cc(-c2ccc(Cl)cc2)cn(Cc2c(Cl)cccc2Cl)c1=O	-7%	-1%	16%	-3%	1%	-9%	-23%	-0.1%
CN(C)c1oc(-c2ccccc2Cl)nc1P(=O)(c1ccccc1)c1ccccc1	-1%	?	15%	9%	17%	?	?	?
CCCN1C(=O)/C(=C/c2c(N3CCNC(=O)C3CC(=O)OCC)nc3c(C)cccn3c2=O)SC1=S (configuration not stated)	0%	-5%	-2%	?	-12%	?	.	.
Cc1ccccc1OCC(=O)N1CCN(C(=O)COc2ccccc2C)CC1	2%	5%[46.1 µM]	2%	-5%[46.1 µM]	-14%	1%	.	.
O=C(CSc1ccc(-c2nc3ccccc3[nH]2)cn1)Nc1ccc(S(=O)(=O)NC2CC2)cc1	9%	21%	-14%	-2%	-4%	45%[activator]	?	-6.8%
O=C(Cn1cnc([N+](=O)[O-])c1)NCCc1ccccc1	-5%	19%[46.1 µM]	-7%	6%[46.1 µM]	0%	-4%	.	.
CCOc1ccc(NC(=O)CCS(=O)(=O)c2ccc3c(c2)CCCN3C(C)=O)cc1	15%	?	11µM*	-5%	-6%	9%	10%	4.3%
CCCCn1c(N)c(N(CCOC)C(=O)c2ccc(Cl)c(S(=O)(=O)N3CCCCC3)c2)c(=O)[nH]c1=O	-6%	?	.	-2%	-4%	-20%	.	.
Cc1c(Cl)cnc(NC(=O)COC(=O)Cc2coc3ccc4ccccc4c23)c1Cl	-8%	?	6%	16%	-9%	3%	?	-9.3%
O=C(O)c1ccc(/C=N/NC(=O)c2cc3c(ccc4ccccc43)o2)cc1	4%	.	-8%	.	7%	-14%	.	.

Brought forward from above: 5 entries, followed by the next part.
SMILES	SARS PLP yeast	MARV entry inh	NS1 function inh	Lassa entry inh	RE007 growth inh	StopGo reporter	Cruzain noTriton	Cruzain Triton
O=C(Cn1cnc([N+](=O)[O-])c1)NCCc1ccccc1	-5%	19%[46.1 µM]	-7%	6%[46.1 µM]	0%	-4%	.	.
CCOc1ccc(NC(=O)CCS(=O)(=O)c2ccc3c(c2)CCCN3C(C)=O)cc1	15%	?	11µM*	-5%	-6%	9%	10%	4.3%
CCCCn1c(N)c(N(CCOC)C(=O)c2ccc(Cl)c(S(=O)(=O)N3CCCCC3)c2)c(=O)[nH]c1=O	-6%	?	.	-2%	-4%	-20%	.	.
Cc1c(Cl)cnc(NC(=O)COC(=O)Cc2coc3ccc4ccccc4c23)c1Cl	-8%	?	6%	16%	-9%	3%	?	-9.3%
O=C(O)c1ccc(/C=N/NC(=O)c2cc3c(ccc4ccccc43)o2)cc1	4%	.	-8%	.	7%	-14%	.	.
CCC1Oc2ccccc2N(CC(=O)NC2CC2)C1=O (configuration not stated)	1%	-2%[46.1 µM]	14%	6%	-23%	?	.	.
O=C(COc1ccccc1[N+](=O)[O-])NCc1cccnc1	4%	-22%	19%	7%	-7%	-16%	2%	1.2%
CCOc1ccc(NC(=O)c2ccc(N)cc2)cc1	-42%	.	-6%	.	-17%	12%	2%	-2.6%
Cc1c(C(=O)O)cccc1-c1ccc(/C=N/Nc2ccc(Br)cc2)o1	-87%	18%	1%	13%	?	-24%	-3%	-20%
Cn1c(SCc2nc3ccccc3[nH]2)nnc1-c1cccs1	9%	15%	22%	3%	28%	6%	-3%	3.5%
COc1ccc(CNC(=O)C2COc3ccccc3O2)c(OC)c1 (configuration not stated)	-8%	.	0%	.	-6%	53%[activator]	-2%	1.3%
CCN1CCN(c2cc(C)c3cc(NC(=S)N4CCN(c5ccccc5F)CC4)ccc3n2)CC1	-4%	13%[46.1 µM]	4%	-3%	26%	4%	.	.
Cc1ccccc1-n1c(C)nnc1SCC(=O)N1CCc2ccccc2C1	-21%	-3%	-22%	1%	3%	-1%	10%	1.1%
COc1ccc(-n2c(SCC(=O)O)nnc2-c2ccc(NC(=O)c3ccccc3)cc2)cc1	3%	8%[46.1 µM]	0%	21%[46.1 µM]	7%	-5%	.	.
